Polio RdRp inh – poliovirus RNA polymerase inhibition; poliovirus polymerase elongation, fluorescence polarization; stronger effect = lower value; % elongation, % (compound at 16.7 µg/mL); 150,000 tested, 0.66% active; AID 588519; in the data active = % elongation below about 90%; note: some results filed as inactive read as strong as hits
Target sequence (P03300 1749-2209 limits assumed): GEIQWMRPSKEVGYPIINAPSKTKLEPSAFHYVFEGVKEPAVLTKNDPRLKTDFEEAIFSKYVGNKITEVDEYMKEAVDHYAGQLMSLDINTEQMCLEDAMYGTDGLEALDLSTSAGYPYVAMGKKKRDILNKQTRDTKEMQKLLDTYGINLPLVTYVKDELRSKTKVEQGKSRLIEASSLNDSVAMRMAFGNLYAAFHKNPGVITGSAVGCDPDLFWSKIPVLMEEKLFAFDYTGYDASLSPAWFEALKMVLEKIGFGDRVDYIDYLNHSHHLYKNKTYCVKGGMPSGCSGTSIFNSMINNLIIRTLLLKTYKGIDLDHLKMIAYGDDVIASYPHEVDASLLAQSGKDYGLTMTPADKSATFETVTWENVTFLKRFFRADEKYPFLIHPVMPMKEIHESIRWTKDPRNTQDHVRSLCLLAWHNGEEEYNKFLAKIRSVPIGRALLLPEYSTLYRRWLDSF
Polio RdRp inh intensity – second read-out of Polio RdRp inh, no call of its own (marks repeat the call); % elongation; measured here: total intensity read-out; formula for this scale not given here;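 total fluorescence in place of polarization; lower means less elongation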
Starred values were filed as active, the others as inactive.

The line under a structure holds: Polio RdRp inh | Polio RdRp inh intensity
O=C(CSc1nnc(-c2ccc(Cl)cc2)o1)Nc1ccc(F)cc1
 : 110 | 111
COc1ccc(-c2oc3ncn4nc(-c5cccc(C)c5)nc4c3c2-c2ccc(OC)cc2)cc1
 : 103 | 105
CCN1C(C(=O)c2ccccc2)=C(OC(=O)COc2ccc(OC)cc2)c2ccccc2S1(=O)=O
 : 111 | 116
CCOc1ccc(NC(=O)Cn2c(=O)n(CCc3ccccc3)c(=O)c3c4c(sc32)CN(C(C)=O)CC4)cc1
 : 108 | 107
CCCN(C(=O)Cn1c(=O)oc2cc(Cl)ccc21)c1ccc(C(C)C)cc1
 : 107 | 112
CCOc1ccc2c(c1)c(=O)c(S(=O)(=O)c1ccc(C)cc1)cn2Cc1ccccc1Cl
 : 100 | 103
COc1ccc(NC(=O)c2c(-c3ccccc3)c(-c3ccccc3)nn(C)c2=O)c(OC)c1
 : 111 | 108
CCOC(=O)c1nnn(CC(=O)NC(=O)Nc2ccc(F)cc2)c1C(=O)OCC
 : 111 | 108
COC(=O)c1sc2cccc(F)c2c1S(=O)(=O)N1CCN(c2ccccc2OC)CC1
 : 107 | 116
CCc1nc(SC)ncc1C(=O)NCc1cccc(Br)c1
 : 113 | 112
O=S(=O)(NCc1ccc(F)cc1)c1ccc2[nH]c3c(c2c1)CCCC3
 : 109 | 107
COc1ccc(CNC(=O)Cn2ncc3c([nH]c4ccccc43)c2=O)cc1
 : 110 | 108
Cc1nc2ccn(Cc3ccco3)c(=O)c2cc1C(=O)N1CCN(c2ccc(F)cc2)CC1
 : 110 | 100
COc1ccccc1CCNC(=O)C(=O)NCC(c1ccco1)S(=O)(=O)c1ccccc1 (stereo not given)
 : 100 | 109
CCOC(=O)c1ccc(NC(=O)C2CC(=O)N(c3ccc(C(C)C)cc3)C2)cc1 (stereo not given)
 : 106 | 111
COc1cccc(Cn2nnc3c(=O)[nH]c(C4CCCN(C(=O)c5ccc(C)cc5)C4)nc32)c1 (stereo not given)
 : 101 | 96
COc1ccc(Cl)cc1NC(=O)Cn1ncc2c3ccccc3n(C)c2c1=O
 : 107 | 103
Cc1ccc(CNC(=O)CN2C(=O)COc3ccccc32)cc1
 : 112 | 114
CCCOc1ccc(-c2nonc2NC(=O)c2oc3ccc(Cl)cc3c2C)cc1OCCC
 : 106 | 105
CC(C)CN(CCCNC(=O)CN1C(=O)CSc2ccc(S(=O)(=O)N3CCOCC3)cc21)CC(C)C
 : 118 | 114
CN(C(=O)c1ccc2c(c1)N(Cc1ccccc1F)C(=O)c1ccccc1S2(=O)=O)C1CCCCC1
 : 111 | 109
CCOc1ccc(CN2CCN(c3ncnc4sc5c(c34)CC(C)CC5)CC2)cc1 (stereo not given)
 : 104 | 107
Cc1ccccc1-c1noc(CCC(=O)Nc2cccc(C)c2C)n1
 : 109 | 110
Cc1cc(/C=C(\C#N)C(=O)Nc2ccccc2)c(C)n1-c1ccc(F)cc1
 : 98 | 101
CCOC(=O)CNC(=O)Nc1cc(C(=O)NCc2ccc(C(C)C)cc2)ccc1N1CCCC1
 : 100 | 100
COc1ccc(-n2nc(C(=O)NCc3ccc(F)cc3Cl)c3c4ccccc4n(C)c3c2=O)cc1Cl
 : 110 | 109
COc1ccc(CNC(=O)c2nc(Cn3nc(C)c(Br)c3C)no2)cc1OC
 : 107 | 113
CCn1c(=O)c2cc(C(=O)NCCCOC)sc2c2ccccc21
 : 97 | 102
Cc1ccc(-c2noc(CSc3nnc(C)n3-c3ccc(F)cc3)n2)cc1
 : 109 | 108
O=C(CNC(=O)c1ccccc1Cl)OCc1cc(=O)n2nc(C3CC3)sc2n1
 : 108 | 110
O=C(CSc1nc2c([nH]c3ccccc32)c(=O)n1-c1ccc(Cl)cc1)NC1CCCCC1
 : 109 | 112
CCN(Cc1nc(-c2ccc(OC)cc2)oc1C)S(=O)(=O)c1ccc(C)cc1
 : 110 | 108
COc1cc(Cn2c(=O)oc3ccc(C)cc32)ccc1OCCC(C)C
 : 100 | 103
COc1ccc2c(CNC3CCCCCC3)c(C(=O)O)n(Cc3ccc(C)cc3)c2c1
 : 105 | 106
COc1ccc(S(=O)(=O)NCCc2csc(-c3cccc(F)c3)n2)cc1OC
 : 103 | 108
COc1ccc(/C=C\c2onc(C)c2S(=O)(=O)N2CCC(C(=O)Nc3cccc(Cl)c3)CC2)cc1
 : 106 | 110
Cc1ccc(-n2c(SCc3nc(-c4ccccc4C)no3)nnc2-c2ccncc2)cc1C
 : 109 | 96
Cc1cc(C)cc(NC(=O)CCc2c(C)nc3nc(CNC(=O)c4cccc(F)c4)nn3c2C)c1
 : 106 | 108
CCOc1ccc(CCNC(=O)c2cc3c(-c4cccc(OC)c4)nn(C)c3s2)cc1OCC
 : 103 | 106
COC(=O)c1ccccc1NC(=O)CCCn1nc(C)c2sc3ccccc3c2c1=O
 : 114 | 114
Cc1cccc(CN2C(=O)c3ccccc3S(=O)(=O)c3ccc(C(=O)N(C)Cc4ccccc4)cc32)c1
 : 107 | 111
CC(C)(C)c1ccc(S(=O)(=O)Nc2ccc(O)c(Sc3nc4ccccc4s3)c2)cc1
 : 110 | 107
CC(C)(C)c1ccc(C(=O)N2CCC(c3nc(-c4ccc(S(=O)(=O)N5CCCC5)cc4)no3)CC2)cc1
 : 102 | 106
CC(=O)N(Cc1cccnc1)c1nc2c(C)cc(C)cc2s1
 : 104 | 105
CCC(CC)C(=O)Nc1nnc(SCc2cc(=O)c3ccccc3[nH]2)s1
 : 103 | 94
Cc1ccccc1NC(=O)CN1C(=O)C(C)(C)c2ccccc21
 : 105 | 107
COc1cccc(CNC(=O)c2cccc(-n3c(C)nc4cccnc43)c2C)c1
 : 112 | 116
CCCCN(CCCC)C(=O)c1cc2c(=O)n3ccccc3nc2s1
 : 107 | 108
Cc1cccc(N(C)S(=O)(=O)c2cc3[nH]c(=O)c(=O)[nH]c3cc2C)c1
 : 103 | 100
CCOc1ccc2nc(N3CCCC(C(=O)Nc4ccc(Br)c(C)c4)C3)sc2c1 (stereo not given)
 : 107 | 112
O=C(CSc1nccn1Cc1ccccc1)Nc1ccc2c(c1)OCO2
 : 104 | 100
COc1ccccc1CNC(=O)c1ccc(C)c(-n2cnc3cccnc32)c1
 : 102 | 105
COc1ccc(-c2nnc(C3CCN(S(=O)(=O)c4ccc(C)c(C)c4)CC3)o2)cc1
 : 102 | 104
COc1ccc(-n2cc(-c3ccccc3)nc2SCC(=O)Nc2ccccc2)cc1Cl
 : 110 | 108
Cc1ccc(OCc2nc(-c3ccc(C(=O)NCCc4ccc(S(N)(=O)=O)cc4)cc3)oc2C)cc1
 : 108 | 108
CCOc1ccc(-c2nonc2NC(=O)c2oc3ccc(Cl)cc3c2C)cc1
 : 103 | 99
CCCn1c2ccccc2c2cnn(CC(=O)NCCc3ccc(OC)cc3OC)c(=O)c21
 : 107 | 113
CCc1ccc(NC(=O)c2oc3c(c2C)-c2[nH]ncc2CC3)cc1
 : 107 | 108
CCCCSc1nnc2c(n1)OC(c1ccc(C)s1)Nc1ccccc1-2 (stereo not given)
 : 111 | 120
CCOC(=O)c1nc(N2CCN(c3ccc(F)cc3)CC2)c2c(C)noc2n1
 : 106 | 110

More compounds follow:
The line under a structure holds: Polio RdRp inh | Polio RdRp inh intensity
COc1ccc(C(=O)N2CCC(C(=O)Nc3ccc(OC)cc3OC)CC2)cc1
 : 104 | 108
Cc1ccc(N(CC(=O)NCCSc2ccccc2)S(=O)(=O)c2ccc(F)cc2)cc1
 : 108 | 102
Oc1ccccc1-c1nc(-c2cccs2)c(-c2cccs2)[nH]1
 : 115 | 114
COc1ccc(CNC(=O)Cn2ncc3c(=O)oc4ccccc4c32)c(OC)c1
 : 108 | 106
COc1ccc(NC(=O)C(CC(C)C)NC(=O)C2CCCCC2)cc1 (stereo not given)
 : 105 | 107
COc1ccc(-c2noc(CCC(=O)NCc3ccc(OC)cc3OC)n2)cc1
 : 112 | 112
Cc1ccc(NC(=O)Cn2c(=O)n(-c3ccc(C)cc3)c(=O)c3ccc(C(=O)NCc4ccccc4Cl)cc32)cc1
 : 100 | 104
COc1ccc(-n2nnc(-c3nsc(NC(=O)c4cccc(C)c4)n3)c2C)cc1OC
 : 106 | 110
COc1cc(OC)cc(-c2cc3nc(C)c(CCC(=O)NCc4ccccc4)c(C)n3n2)c1
 : 110 | 111
Cc1c(C2=CCN(S(=O)(=O)c3ccc(Br)cc3)CC2)c2ccccc2n1CC(=O)N1CCCC1
 : 102 | 102
Cc1ccc(S(=O)(=O)Nc2cccc(-c3ccc(N4CCC(C)CC4)nn3)c2)s1
 : 107 | 101
COc1cc(C)ccc1OCCSc1nc2ccc(NC(=O)c3ccco3)cc2s1
 : 108 | 107
Cn1c(-n2cccc2)c(-c2c(-c3ccc(F)cc3)[nH]c3c2c(=O)n(C)c(=O)n3C)c(=O)n(C)c1=O
 : 105 | 112
CCOc1ccc(NC(=O)CSc2nc3ccsc3c(=O)n2C(C)CC)cc1 (stereo not given)
 : 100 | 98
Cc1c2cnn(CC(=O)N3CCCCC3)c(=O)c2c(C)n1Cc1ccc(Cl)cc1
 : 103 | 108
COc1ccccc1CNC(=O)CCn1c(=O)c2ccccc2n(CC(=O)Nc2ccc(C)cc2)c1=O
 : 100 | 96
CCOC(=O)c1c(NC(=O)c2cc(-c3ccccc3)on2)sc2c1CCCC2
 : 104 | 109
CC1CCCN(S(=O)(=O)c2ccc3c(c2)CCN3C(=O)CCC(=O)O)C1 (stereo not given)
 : 111 | 109
O=C(Nc1cccc(Cl)c1Cl)c1cc2nc(-c3ccc4c(c3)OCO4)cc(C(F)(F)F)n2n1
 : 105 | 107
CCN(C(=O)CSc1nc2ccccc2n1CC(=O)Nc1ccccc1C)c1ccccc1
 : 107 | 109
CCn1c(C)c(C)c2cc(C(=O)NCC(C)c3ccccc3)ccc21 (stereo not given)
 : 114 | 114
COc1cccc(CNC(=O)c2ccc3c(Cl)c4c(nc3c2)CCCC4)c1
 : 103 | 104
CCCCN(Cc1cc2cc(C)ccc2[nH]c1=O)C(=O)c1cccc(Cl)c1
 : 112 | 107
CC(C)c1ccc(C2N=C(N)Nc3nc4ccccc4n32)cc1 (stereo not given)
 : 103 | 104
Cc1ccc(NC(=O)c2c3c(nc4ccccc24)C(=O)N(C2CCCCC2)C3)cc1F
 : 105 | 112
COc1ccccc1N1CCN(C(=O)CCS(=O)(=O)c2cc(Br)cc3c2N(C(=O)C2CC2)CC3)CC1
 : 105 | 108
CCn1nnc2cc(C(=O)Nc3ccc(C)cc3Br)ccc21
 : 98 | 96
CCc1ccc(NC(=O)CC2C(=O)N(c3ccc(OC)cc3)C(=O)N2Cc2cccs2)cc1 (stereo not given)
 : 110 | 112
COc1cccc(NC(=O)Cn2cc(C(=O)c3ccc(F)cc3)c(=O)c3cc(OC)ccc32)c1
 : 108 | 109
CCOC(=O)c1c(NC(=O)c2cc(OCC)c(OCC)c(OCC)c2)sc2c1CCCCC2
 : 101 | 103

Record cards (already shown). Values in the order: Polio RdRp inh, Polio RdRp inh intensity
`CCn1nnc2cc(C(=O)Nc3ccc(C)cc3Br)ccc21` is listed as 98, 96
`Cc1ccc(NC(=O)c2c3c(nc4ccccc24)C(=O)N(C2CCCCC2)C3)cc1F` is listed as 105, 112
`COc1cccc(CNC(=O)c2ccc3c(Cl)c4c(nc3c2)CCCC4)c1` is listed as 103, 104
`CC(C)c1ccc(C2N=C(N)Nc3nc4ccccc4n32)cc1` (stereo not given) is listed as 103, 104

The main list resumes; the 3 compounds before the break are reprinted first.
The line under a structure holds: Polio RdRp inh | Polio RdRp inh intensity
CCc1ccc(NC(=O)CC2C(=O)N(c3ccc(OC)cc3)C(=O)N2Cc2cccs2)cc1 (stereo not given)
 : 110 | 112
COc1cccc(NC(=O)Cn2cc(C(=O)c3ccc(F)cc3)c(=O)c3cc(OC)ccc32)c1
 : 108 | 109
CCOC(=O)c1c(NC(=O)c2cc(OCC)c(OCC)c(OCC)c2)sc2c1CCCCC2
 : 101 | 103
COc1ccc(C(=O)NCCn2cc(SCC(=O)Nc3ccc(F)cc3)c3ccccc32)cc1
 : 104 | 104
CSc1nc2c(c(=O)[nH]1)C(c1cccc(F)c1F)CC(=O)N2 (stereo not given)
 : 109 | 101
Cc1ccc(-n2ncc(C(=O)NCCN3CCc4ccccc4C3)c2C2CCN(C(=O)OC(C)(C)C)CC2)c(C)c1
 : 101 | 109
CCOc1ccc(NC(=O)CN(c2ccc(Cl)cc2C)S(=O)(=O)c2ccccc2)cc1
 : 102 | 105
COc1ccc(CNC(=O)Cn2ccc3cc(S(=O)(=O)N4CCCC4)ccc32)c(OC)c1
 : 113 | 112
Cc1ccc(Cn2c(C(=O)Nc3cccc(Cl)c3)cc3sccc32)cc1
 : 104 | 91
COc1ccc(-c2nc(CCNC(=O)c3ccccc3)cs2)cc1OC
 : 110 | 108
CC1CCCN(CCCNC(=O)Cn2ncc3c([nH]c4ccccc43)c2=O)C1 (stereo not given)
 : 115 | 119
CC(CCc1ccccc1)NC(=O)Cn1ncc2c3ccccc3n(Cc3ccc(F)cc3)c2c1=O (stereo not given)
 : 108 | 108
CCc1ccc2oc(C(=O)NCC(c3ccc(OC)cc3)N3CCCCC3)c(C)c2c1 (stereo not given)
 : 100 | 106
CNC(=O)C1CCC(Cn2c(=O)c3sccc3n(Cc3cc(C)ccc3C)c2=O)CC1 (stereo not given)
 : 109 | 115
CCc1c(CN2CCN(c3cccc(C)c3)C(C)C2)csc1C (stereo not given)
 : 104 | 108
O=C(CSc1nc2c([nH]c3ccccc32)c(=O)n1-c1ccccc1)c1ccccc1
 : 99 | 106
COc1ccc(C(=O)Nc2cnc3ccccn3c2=O)cc1
 : 104 | 103
CCOc1ccc(CNC(=O)c2ccc3nc(C(C)C)oc3c2)cc1
 : 109 | 108
O=C(c1ccc(Br)cc1)N(Cc1ccco1)c1ccccn1
 : 106 | 99
CCOc1ccc(-c2c(C)nn3c(C)c(C(=O)NCc4ccc(Cl)cc4)cnc23)cc1OCC
 : 102 | 95
CSc1ccc(CCNC(=O)c2cnn(-c3ccccc3)c2-n2cccc2)cc1
 : 100 | 105
Cc1noc(C)c1S(=O)(=O)N(CC(=O)Nc1ccc(F)cc1F)c1ccc(C(C)C)cc1
 : 110 | 110
O=C(NCc1cccc(Cl)c1)C1CCN(C(=O)c2sccc2-n2cccc2)CC1
 : 117 | 114
COc1ccc(C2CC(=O)Nc3c2c(=O)[nH]c2nc4ccccc4n32)cc1 (stereo not given)
 : 105 | 104
Cc1cc(SCC(=O)NCc2ccc(Cl)cc2)nc(=O)[nH]1
 : 111 | 112

From PubChem

An excerpt (hit frequency here may not be typical).
